Screens deposited in PubChem by National Center for Advancing Translational Sciences (NCATS).
TRPML1 ag: activates the human TRPML1 channel | activation, % (no concentration beside the values) | 410,000 tested, 0.12% active | Q9GZU1 | TRPML1-expressing cells, Ca2+ dye fluorescence, FDSS; host cell line not named in the record; reference of the full effect not given here | AID 624414; in the data active = activation above about 50%; inconclusive = about 30% to 50%; inactive = below about 30%; further: 0% is about no effect; the text of the record puts the active cut at 80%
Target sequence (Q9GZU1 whole entry, looked up): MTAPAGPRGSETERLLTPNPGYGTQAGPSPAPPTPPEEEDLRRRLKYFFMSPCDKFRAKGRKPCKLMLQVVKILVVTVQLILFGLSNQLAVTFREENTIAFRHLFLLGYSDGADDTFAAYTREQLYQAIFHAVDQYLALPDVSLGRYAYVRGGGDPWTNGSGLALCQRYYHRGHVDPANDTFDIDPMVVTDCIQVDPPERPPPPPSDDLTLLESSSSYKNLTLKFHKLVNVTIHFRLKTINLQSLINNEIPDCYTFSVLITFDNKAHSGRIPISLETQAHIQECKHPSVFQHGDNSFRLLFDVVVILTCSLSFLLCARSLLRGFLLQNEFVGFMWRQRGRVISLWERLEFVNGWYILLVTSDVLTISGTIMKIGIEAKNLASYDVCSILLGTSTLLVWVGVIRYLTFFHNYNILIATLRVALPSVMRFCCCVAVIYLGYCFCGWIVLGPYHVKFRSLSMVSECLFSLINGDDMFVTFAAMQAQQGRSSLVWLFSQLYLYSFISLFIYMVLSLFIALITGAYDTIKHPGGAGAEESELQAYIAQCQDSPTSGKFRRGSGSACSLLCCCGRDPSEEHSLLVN
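Kinetic FDSS Ca2+ read in Tet-induced TRPML1-DL cells (ABD Ca8 dye plus quencher, 45-90 min RT loading): baseline, then compound, then 110 s agonist window; EC80 agonist 54-4 at 4uM final added afterwards for a 110 s antagonist window.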
ClpP mod: qHTS Assay for Activators of ClpP; AID 651965, 2013; purified B. subtilis ClpP, FRET peptide cleavage, 20 min; 340,000 tested, 1.9% active; Potency, µM (highest dose often 57.5 µM), without a hit: at the top dose activity change, negative = active; ATP-dependent Clp protease proteolytic subunit (Bacillus subtilis (strain 168)), P80244; active = well fitted falling curve with a large enough effect; inconclusive = small, poorly fitted or top-dose-only effect; inactive = no such curve, though single readings can be large or run the other way; further: potency means the concentration at half of the fitted maximal effect; the source files actives as falling curves though it sought activators and does not explain the sign; nearly all actives have a fitted effect of over 65% in size; many hits overshoot -100%
Target sequence (P80244 whole entry, looked up): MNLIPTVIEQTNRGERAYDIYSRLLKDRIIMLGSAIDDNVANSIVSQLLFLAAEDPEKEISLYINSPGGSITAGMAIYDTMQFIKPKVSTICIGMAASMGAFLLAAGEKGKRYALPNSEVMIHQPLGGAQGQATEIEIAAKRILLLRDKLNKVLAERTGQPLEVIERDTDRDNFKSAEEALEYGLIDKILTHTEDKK
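Buffer: 100 mM Tris/HCl pH8, 100 mM KCl, 0.05% low protease BSA, 2.5% glycerol, 0.01% Tween-20. ClpP 10 microg/mL final; 20 min RT; delta FRET normalized to ADEP and DMSO controls.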
Menin MLL FP FL: inhibitors of human menin-MLL interaction, wild-type MLL peptide. Fluorescence polarization, fluorescein-MLL peptide displacement from menin. FP activity change, % at 61.4 µM. 290,000 tested, under 10 active; inconclusive = falling polarisation curve, or a change in total fluorescence; inactive = total fluorescence flat and polarisation flat or rising; no compound was filed as active; the % refers to the polarisation; negative = inhibition;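 further: % of control where 0% means no effect; inhibitors lower the polarisation; unlabelled MLL peptide was the positive control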
TRPML1 inh: blocks the human TRPML1 channel. Q9GZU1. TRPML1-inducible cells, Ca2+ dye fluorescence, FDSS; hits give low values; inhibition of EC80 agonist-evoked calcium signal. activity change, negative = inhibition, % (concentration not given with the values). 390,000 tested, 0.02% active; in the data active means activity change below about -50%; inconclusive means about -30% to -50%; inactive means above about -30%;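 further: stimulus is agonist 54-4 at its EC80 concentration; on the % scale 0 is the no-effect control and ±100 the full control effect; compound concentration not given in the record; the text of the record puts the active cut at -80%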
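TRPML1-DL cells, Tet-induced overnight (~16 h, 37 °C) at 1,500 cells/well, were loaded with Ca8 no-wash dye plus quencher for 45-90 min at room temperature. Compounds were pinned during FDSS kinetic reading; agonist 54-4 at EC80 (4 uM final) then added.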
gsp antag: gsp mutant antagonism; gsp-mutant cells, cAMP HTRF, 30 min; control for the full effect not named in the record; Potency, µM (series often up to 76.9 µM), inactives show top-dose activity change, negative = inhibition, actives largely listed as inhibitors; 340,000 tested, 0.4% active; AID 624288; active = falling curve of any shape with a large fitted effect; inconclusive = falling curve, mostly with a smaller effect; inactive = flat or rising curve; cell line not stated here;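 further: intracellular cAMP measured with PDE inhibitor Ro 20-1724 present during compound exposure; potency means the concentration at half of the fitted maximal effect; on the % scale 0 is the no-effect control and ±100 the full control effect; nearly all actives have a fitted effect of over 65% in size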
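HTRF cAMP measurement after 30 min RT detection following 30 min, 37C compound treatment alongside […] (added as 300 uM solution) in G418-selected cells seeded at 2000/well and grown 16–24 h.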
gsp ag: gsp mutant agonism; AID 624287; Potency, µM (highest dose often 76.9 µM), without a hit: at the top dose activation (cAMP increase), most hits filed as activators; 340,000 tested, 0.13% active; gsp mutant cells, cAMP HTRF, 30 min; control for the full effect not named in the record; active = well fitted activation curve with a large enough effect; inconclusive = small, poorly fitted or top-dose-only effect, or another doubt; inactive = no such curve, though single readings can be large or run the other way; cell line not stated here;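 further: phosphodiesterase inhibitor Ro 20-1724 added with compounds to block cAMP breakdown; potency means the concentration at half of the fitted maximal effect; nearly all actives have a fitted effect of over 60% in size; about a fifth of the inactives were tested at one dose only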
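Cells in DMEM/10% FBS with G418 were pretreated with compounds in DMSO plus […] (300 uM stock) for 30 min at 37C. cAMP was measured by HTRF (cAMP-d2 plus anti-cAMP antibody-K) after 30 min at room temperature.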
* hit, by the source's call; ? = inconclusive; . = no result given; & = joins results of further samples; [ ] = dose if it differs, or a comment.

SMILES	TRPML1 ag	ClpP mod	Menin MLL FP FL	TRPML1 inh	gsp antag	gsp ag
O=C(c1ccccc1Oc1nnnn1-c1ccccc1)N1CCOCC1	0.8	-1.7%	5.9	-5.4	6.0%	3.3%
COCCN(C(=O)Cc1cccs1)C(C(=O)NCc1ccc(OC)cc1)c1ccc(C(C)C)cc1 (configuration not stated)	3.3	0.5%	0.6	5.7	?	-6.0%
Cc1ccc(S(=O)(=O)N2CCCCC2)cc1NC(=O)C1CC(=O)N(Cc2ccccc2)C1 (configuration not stated)	0.0	-1.2%	5.8	-11.1	-5.3%	-10.5%[15.4 µM]
O=C(N/C(=C\c1ccc(O)cc1)C(=O)N1CCCCC1)c1ccccc1	0.4	1.0%	2.1	-26.1	3.0%	10.0%
COc1ccc(N2CCN(C(=O)CCS(=O)(=O)c3ccc4c(c3)NC(=O)C(C)S4)CC2)cc1 (configuration not stated)	0.6	-2.5%	0.6	0.7	-13.4%	-40.3%[inhibitor]
O=C1C2C3CCCC3=C3CCCC3C2C(=O)N1c1ccc(Cl)cc1 (configuration not stated)	1.1&1.6	1.4%	-0.2	?	15.9%	-35.3%
CN1C(=O)C2(OCC(COc3ccc(Cl)cc3)O2)c2ccccc21 (configuration not stated)	2.0	-2.0%	-0.2	39.5	35.5µM*	4.4%
O=C(C1CCCCN1S(=O)(=O)c1ccc(F)cc1)N1CCN(c2ccccc2F)CC1 (configuration not stated)	0.9	-1.7%	1.8	3.6	-12.0%	-21.2%
O=C(OCc1ccc(Br)cc1)c1cccnc1Cl	1.1	.	.	-3.3	-7.9%	3.2%[15.4 µM]
C[C@H](CO)N1C[C@H](C)[C@@H](CN(C)S(=O)(=O)c2cccs2)Oc2ccc(NC(=O)Nc3ccccc3)cc2C1=O	-0.2	1.1%	.	6.2	-4.7%	.
O=C(NCc1ccc(F)cc1)C1CCN(C(=O)c2ccc(-n3ccc4ccccc43)s2)CC1	0.0	?	.	1.1	.	.
c1ccc(N2CCN(Cc3cnc(N4CCOCC4)s3)CC2)cc1	1.1	.	2.4	3.0	11.0%	-24.2%[15.4 µM]
O=C(Cn1nnc2ccccc21)N/N=C/c1ccco1	-0.5	.	1.8	-3.3	3.6%	-2.4%
Cc1ccc(NC(=O)c2cncc(Br)c2)c([N+](=O)[O-])c1	-0.6	-3.2%	1.8	-9.2	5.4%	?
COc1ccc(CNC(=O)C2CCC(CNS(=O)(=O)c3ccc(C)cc3)CC2)cc1 (configuration not stated)	0.7	0.2%	-4.4	-9.7	?	-0.7%
C/C(=N/NC(=O)c1ccccn1)c1c[nH]c2ccccc12	-0.8	1.2%	0.0	11.7	-5.4%	-4.2%
COc1ccc(-c2cc(C(F)(F)F)c(C#N)c(=O)[nH]2)cc1	2.0	3.8%	4.2	1.2	-31.4%	19.0%
CCOc1ccc(CNC(=S)N/N=C\c2ccc([N+](=O)[O-])cc2)cc1	0.9	-5.1%	5.9	48.4	11.6%	?
Clc1cccc(-c2ccc3nccn3c2)c1Cl	0.2	-7.4%	.	-29.9	.	.
O=C(COc1cc(F)ccc1[N+](=O)[O-])NCCN1C(=O)CSC1=O	0.1	-2.7%	.	10.3	-1.9%	11.0%
COc1ccc(S(=O)(=O)NCCc2nnc3ccc(SCC(=O)Nc4cc(C)on4)nn23)cc1	0.8	.	2.5	12.5	-4.0%	-11.6%[15.4 µM]
COc1cccc(C2CC(c3cccs3)=NN2C(=O)CCC(=O)O)c1OC (configuration not stated)	0.0	.	10.3	-1.7	-24.0%	3.5%
O=C(Nc1ccc(C(=O)N2CCCC2)cc1)C1CCCC1	0.0	1.4%	.	13.8	2.6%	.
C/C(CC(=O)Nc1cccc(F)c1)=N\NC(=O)C(=O)NC1CCCCC1	0.3	-0.3%	4.3	-0.9	0.8%	-53.6%[inhibitor]
COc1cnn(C(C)(C)C)c(=O)c1Cl	-0.3	-1.0%	0.0	-13.1	0.4%	3.1%
CCOCCCN(Cc1ccco1)C(=O)c1cc2c(=O)[nH]c3ccc(C)cc3c2s1	3.4&-0.4	3.7%&3.8%	0.6	-11.0&-6.8	-27.2%	-96.6%[inhibitor]
COc1ccccc1NC(=O)c1ccc(N)cc1	0.1	0.3%	1.0	4.7	-0.5%	1.3%
Cc1c(N=Cc2cccnc2)c(=O)n(-c2ccccc2)n1C	-0.5	-0.5%	-2.8	19.9	3.7%	-36.4%[inhibitor]
COc1ccccc1[C@H]1C(c2ccc(F)cc2)=NN(c2ccccc2)[C@@H]1CO	-0.8	4.7%	5.7	23.9	3.9%	.
O=S1(=O)CC/C(=N\O)c2ccccc21	-0.3	0.5%	1.3	-2.3	12.1%	?
O=C(O)C1CC=CCC1C(=O)Nc1ccc(S(=O)(=O)N2CCCc3ccccc32)cc1 (configuration not stated)	0.5	-1.2%	-0.5	19.5	3.5%	0.3%
Fc1ccc(Nc2nc(N/N=C/c3ccco3)nc(N3CCCCC3)n2)cc1	3.2	-2.2%	-0.5	-5.5	?	-45.5%[inhibitor]
CCc1ccc(C(=O)Nn2c(C)nc3ccccc3c2=O)cc1	0.7	-0.1%	0.9	15.5	-3.7%	19.3%
CCOC(=O)c1cc2sccc2n1CC(=O)Nc1ccc(OC)cc1	-0.4	0.0%	-10.2	23.8	12.2%	26.8%
COc1cc(OC)c(C2NC(=O)CCC2[N+](=O)[O-])cc1OC (configuration not stated)	-0.8	1.1%	-6.7	3.9	1.3%	?
O=C(O)c1cc(=O)[nH]c2c(Cl)cccc12	2.8	-1.9%	0.0	5.7	5.4%	-33.5%
COc1ccc(CN2C(=O)c3oc4ccc(F)cc4c(=O)c3C2c2ccc(O)cc2)cc1 (configuration not stated)	1.5	5.2%	.	22.3	.	.
CCN(CC)c1ccc(/C=N/NC(=O)CN2CCCc3ccccc32)cc1	3.4	4.0%	1.1	41.9	-5.7%	-27.1%
COc1cc(C(=O)Nc2c(C)cc(C)cc2C)c(-n2cnnn2)cc1OC	-0.6	0.5%	0.8	-9.3	-0.6%	2.9%
Cc1ccc2nc(-c3ccc(NC(=O)CSc4nc(N)cc(=O)[nH]4)cc3)sc2c1	-0.1	3.2%	2.8	45.3	0.4%	-6.9%
COc1ccc(C2C([N+](=O)[O-])=C(C)N(C)C(=O)N2C)cc1OC (configuration not stated)	-0.2	.	-5.3	10.6	9.3%	-26.7%
COc1ccc(CNC(=O)c2ccc(N3CCCC3)c(NC(=O)NCc3ccc(C)cc3)c2)cc1	1.0	?	.	5.5	.	.
CC(C)(C)NC(=O)NCc1cccnc1	1.0	-2.1%	6.9	-2.2	2.6%	3.8%
CCN(CC)CCCNC(=O)C1CCN(c2ncnc3c2sc2cccc(F)c23)CC1	1.1	-17.0%	2.6	-8.5	-5.8%	?
O=C(Nc1ccc(F)cc1F)c1cnn(-c2ccc(F)cc2)c1-n1cccc1	2.4	-14.9%	.	-6.6	.	.
COc1cccc(N2CC(NC(=O)Cc3cccs3)CC2=O)c1 (configuration not stated)	-0.8	-1.2%	.	5.4	.	.
CCOC(=O)c1c(NC(C)=O)sc2c(OCC(O)CNC(C)(C)C)c(Br)ccc12 (configuration not stated)	0.5	-2.6%	4.7	8.0	7.8%	24.5%
CC1CCCCN1C(=O)/C(=C\c1ccccc1)c1ccccc1 (configuration not stated)	1.6	0.6%	2.8	-6.8	-5.4%	7.9%
CCOc1ccc(CC(=O)Nc2ccc3nc(N4CCCCC4)cc(C)c3c2)cc1OCC	2.5	5.0%	.	-7.9	.	.
Cc1c(NC(=O)C(C)OC(=O)[C@@H](NC(=O)c2ccccc2)C(C)C)c(=O)n(-c2ccccc2)n1C (some centres not stated)	0.6	1.7%	1.8	10.0	-5.1%	30.9%

The list goes on:
SMILES	TRPML1 ag	ClpP mod	Menin MLL FP FL	TRPML1 inh	gsp antag	gsp ag
O=C(CSc1ccc2c(c1)OCCO2)NCCN1C(=O)CSC1=O	1.1	1.8%	4.4	21.2	7.1%	10.8%
O=C(O)c1ccc(CNC(=S)Nc2ccccc2)cc1	-0.6	.	-0.4	10.4	16.8%	-25.1%
COc1ccc(OCc2nnc(SCC(=O)O)n2N)cc1	-0.2	-5.8%	5.0	-1.4	9.0%	1.6%
Cc1ccccc1CN1CCCC(C(=O)Nc2ccccc2Oc2cccnc2)C1 (configuration not stated)	0.2	-2.1%	-0.5	6.5	-5.2%	-25.4%
CC(C)c1nnc(SCC(=O)N2CCc3ccccc32)n1C	-0.5	-1.5%	0.6	-3.0	4.9%	23.7%
O=C(OCc1ccccc1)C1=[N+]([O-])OC(C(=O)OCc2ccccc2)C1c1c[nH]c2ccccc12 (configuration not stated)	0.9	-3.4%	3.1	11.3	-2.0%	21.4%
O=C(Nc1cc(S(=O)(=O)N2CCCC2)ccc1Cl)c1ccncc1	0.3	0.1%	.	0.3	0.6%	17.9%
CCc1cc(=O)oc2c(C)c(OCC(=O)N3CCCc4ccccc43)ccc12	1.6	?	-1.5	13.7	3.0%	-41.8%[inhibitor]
CC1(C)OC(=O)C2=C(C[C@@H](CCOCc3ccccc3)O[C@H]2c2ccc(F)cc2)O1	3.0	-1.8%	.	25.9	.	.
COc1cccc(-n2c(C)nc3c(cnn3-c3ccc(C)c(C)c3)c2=O)c1	1.3	-1.4%	.	81.3	.	.
O=C(CCc1ccccc1)NCc1ccccn1	-0.3	-1.4%	6.3	8.2	0.5%	2.1%
CC(=O)Nc1ccc(S(=O)(=O)N(C)CC(=O)OCC(=O)N2CC(C)OC(C)C2)cc1 (configuration not stated)	2.5	.	.	1.4	-0.1%	-26.8%[15.4 µM]
COC(=O)c1cc2oc3ccccc3c2n1CC(=O)Nc1ccc(OC)c(OC)c1	-0.8	4.2%	.	11.6	.	.
O=C(CSc1nnc(CNC(=O)c2ccco2)o1)Nc1ccc(OC(F)(F)F)cc1	0.8	0.2%	.	-17.5	0.8%	-0.6%
Cc1cccc(C(=O)NCC(c2cccs2)S(=O)(=O)c2cccs2)c1 (configuration not stated)	0.1	0.6%	.	3.3	.	.
CC(C)CCNCC(=O)NC(c1ccccc1)c1ccccc1	-0.9	0.0%	-3.6	22.8	12.9%	6.6%[15.4 µM]
Cn1nnc2cc(C(=O)NC3CCCCC3)ccc21	2.3	-0.3%	-0.3	20.5	11.6%	22.0%
COc1cc(CC(=O)OCC(=O)NC2CCCCCC2)cc(OC)c1OC	-0.3	-0.9%	.	20.7	-4.2%	-4.3%[15.4 µM]
CC[C@]12c3[nH]c4cc(CCC(=O)N(C)C)ccc4c3CCN1C(=O)[C@@H](CC(=O)NCCc1ccccn1)C[C@@H]2C(=O)N1CCN(C(=O)c2ccco2)CC1	3.3	-4.0%	.	-1.3	7.3%	.
O=C(Cc1ccc(Cl)cc1)NNC(=S)NC(=O)c1cccs1	4.4	-2.6%	2.7	6.0	-3.2%	-15.9%[15.4 µM]
